High-throughput results as filed in PubChem BioAssay.
RanGTP-Impb inh – disruptors of Ran-importin-beta complex formation – biochemical, FRET, CFP-Ran, YFP-importin-beta, homogeneous, primary screen; cell-free CFP-Ran/YFP-importin-beta FRET ratio; inhibition, % (test concentration not listed); 300,000 compounds, 1.1% hits; AID 2216;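 active = most replicates above 15%; inconclusive = exactly half above 15%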;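 also: 0% = DMSO wells and 100% = Ran loaded with GDP instead of GTP; wells of about 40 µL received 100 nL stock; the first replicate is given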
T cruzi inh – blocks replication of Trypanosoma cruzi; T. cruzi beta-gal in NIH3T3, luminescence, 90 h; inhibition, % (test concentration not listed); 300,000 compounds, 1.4% hits;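 active = mean inhibition across valid replicates above about 55%, limit read from the data; inconclusive = mean below that limit but half or more replicates reach it; inactive = mean below it, under half of replicates reach it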;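 also: signal also drops with host cell toxicity which is not excluded here; 0% = plate median of DMSO wells and 100% = zero luminescence signal; higher percent means less beta-gal luminescence so fewer parasites; stock transfer was 50 nL into about 50 µL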
AF4-AF9 inh – inhibitors of human MLL-AF4/AF9 interaction. P42568. 350,000 compounds, 0.47% hits. AID 651704. AlphaScreen, biotin-AF4 peptide binding to FLAG-AF9. inhibition, % at 10 µM;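 active = every replicate reaching a set inhibition limit, whatever the replicate mean, cut at about 25% in these data; inconclusive = mean inhibition reaches that limit but some replicates miss it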;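 also: 0% = plate neutral control median and 100% = total signal loss; the record names both 10 and 1 µM as test concentration; the first replicate is given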
Target sequence (P42568 whole entry, looked up): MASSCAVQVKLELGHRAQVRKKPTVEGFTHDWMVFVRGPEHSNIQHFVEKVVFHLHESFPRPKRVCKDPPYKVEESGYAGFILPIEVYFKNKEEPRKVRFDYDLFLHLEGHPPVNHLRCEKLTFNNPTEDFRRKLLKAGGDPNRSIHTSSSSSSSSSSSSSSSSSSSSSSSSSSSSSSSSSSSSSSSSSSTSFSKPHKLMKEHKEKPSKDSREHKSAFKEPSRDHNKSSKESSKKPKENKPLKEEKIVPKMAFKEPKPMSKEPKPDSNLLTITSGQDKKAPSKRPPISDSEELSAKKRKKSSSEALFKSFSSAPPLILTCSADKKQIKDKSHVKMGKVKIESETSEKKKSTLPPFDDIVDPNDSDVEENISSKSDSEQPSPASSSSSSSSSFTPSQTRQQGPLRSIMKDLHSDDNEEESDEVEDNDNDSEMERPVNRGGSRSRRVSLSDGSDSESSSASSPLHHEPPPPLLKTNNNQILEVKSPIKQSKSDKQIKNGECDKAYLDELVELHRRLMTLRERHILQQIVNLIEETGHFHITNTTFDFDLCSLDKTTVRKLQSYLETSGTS
Beta cell apopt – beta cell apoptosis inhibition. 300,000 compounds, 0.8% hits. protection from apoptosis, % (no concentration beside the values). INS-1E cytokine-induced death, ATP luminescence, 48 h; percent of positive-control rescue, neutral wells zero. AID 435005;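 active = all replicates at 75% or more, or half of them and the mean; inconclusive = half reach 75% but not the mean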;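 also: 0% = cytokine-treated negative control wells and 100% = positive control rescue; higher means more ATP so stronger rescue from cytokine killing; wells of about 40 µL received 100 nL stock; the first replicate is given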
rRNA inh HTS – inhibitors of bacterial rRNA selective over humanized ribosomes; E. coli WT GFP vs humanized-ribosome RFP mutants, fluorescence, 24 h; active compounds read low; DMSO median 0, no signal -100; GFP signal change (wild-type ribosome), % (test concentration not listed); 350,000 compounds, 1.6% hits; AID 720706;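 active = significant combined selectivity score with lowered wild-type GFP, culture density cut under 30%, mutant RFP and density less affected; inactive = any of these conditions unmet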; also: one replicate is shown; some compounds called inactive have numbers as strong as hits
FGF22 binding – binders of recombinant human FGF22 by thermal shift | calls only at 9.99 µM | Q9HCT0 | 340,000 compounds, 1.5% hits | SYPRO orange fluorescence; percent of sucrose octasulfate shift, DMSO zero;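 active = melting point raised past a set limit in the mean and every replicate; inconclusive = no clear call; three in four hits are not shown here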
Target sequence (Q9HCT0 whole entry, looked up): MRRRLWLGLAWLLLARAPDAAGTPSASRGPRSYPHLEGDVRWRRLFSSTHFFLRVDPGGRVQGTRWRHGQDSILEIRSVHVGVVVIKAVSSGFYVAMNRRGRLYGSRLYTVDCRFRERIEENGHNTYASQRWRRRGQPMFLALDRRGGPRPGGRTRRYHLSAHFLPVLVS
ALR inh – inhibitors of human sulfhydryl oxidase ALR; inhibition, % (concentration not given with the values); purified ALR, DTT oxidation, H2O2 HRP-luminol luminescence; P55789; AID 485317; 290,000 compounds, 3.8% hits;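 active = mean and each replicate at 75% or more; inconclusive = only one of the two met; inactive = neither met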;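 also: stock transfer was 7.5 nL into about 7.5 µL; 0% = neutral wells and 100% = wells with inactivated enzyme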
Target sequence (P55789 whole entry, looked up): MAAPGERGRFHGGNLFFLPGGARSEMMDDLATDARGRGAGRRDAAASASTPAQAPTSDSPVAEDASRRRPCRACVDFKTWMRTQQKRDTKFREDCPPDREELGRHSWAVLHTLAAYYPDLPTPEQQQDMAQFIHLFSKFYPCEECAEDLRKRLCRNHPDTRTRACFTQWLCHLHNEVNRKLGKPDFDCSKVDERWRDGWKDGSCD
Calb FLC – C. albicans growth modulation with fluconazole; C. albicans CaCi-2 (fluconazole-resistant clinical isolate) + fluconazole, Alamar Blue growth, 48 h; growth inhibition, % (concentration not given with the values); 300,000 compounds, 0.57% hits;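 active = most replicates above 75%; inconclusive = exactly half above 75%; inactive = most below 75%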;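 also: all wells also contain fluconazole at 8 µg/ml as a sub-toxic cotreatment; 0% = median of DMSO wells and 100% = median of geldanamycin control wells; wells of about 8 µL received 7.5 nL stock; the first replicate is given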
rRNA inh HTS OD600 – second read-out of rRNA inh HTS, no call of its own (marks repeat the call); OD600 change, %; measured here: OD600 growth;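 optical density of the mix in the first replicate; 0 = DMSO median and -100 = no signal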
rRNA inh HTS RFP – second read-out of rRNA inh HTS, no call of its own (marks repeat the call); RFP signal change, %; measured here: RFP humanized mutant strains;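 first replicate; 0 = DMSO median and -100 = no signal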
* = called active by the depositor; i = inactive; ? = inconclusive; . = not tested or not shown.

SMILES	RanGTP-Impb inh	T cruzi inh	AF4-AF9 inh	Beta cell apopt	rRNA inh HTS	rRNA inh HTS OD600	rRNA inh HTS RFP	FGF22 binding	ALR inh	Calb FLC
COc1cc(/C=N/NC(=O)c2cccnc2)ccc1OC(=O)c1cc(OC)c(OC)c(OC)c1	2.8	0	-1.2	109*	5	1	0.6	i	.	1
COc1ccc(OC)c(S(=O)(=O)N(C)CC(=O)Nc2cc(Cl)ccc2OC)c1	-3.7	-9	.	5	.	.	.	.	-7	-8
C=CCNC(=O)c1oc2ccc(S(=O)(=O)N3CCC4(CC3)OCCO4)cc2c1C	-1.0	1	2.0	1	2	7	1.2	i	-1	-12
CSc1ccc(C(=O)NCC(c2ccco2)N(C)C)cc1[N+](=O)[O-] (stereo not drawn)	3.2	3	3.7	1	3	-1	-3.3	i	12	3
Cc1cc(NC(=O)CSc2nc(-c3ccc(Br)cc3)nc3c2c(=O)n(C)c(=O)n3C)no1	-2.1	-11	.	5	.	.	.	.	-2	9
COC(=O)C(C)N(c1ccc(OC)cc1)S(C)(=O)=O (stereo not drawn)	4.0	-6	-1.9	1	17	14	5.1	.	-18	-2
Cc1ccc2c(c1)cc(CN(Cc1ccc3c(c1)OCO3)C(=O)c1ccccc1)c1nnnn12	3.7	26	.	-1	.	.	.	.	-3	-2
CC1CCN(S(=O)(=O)c2csc(C(=O)Nc3ccccc3)c2)CC1	-2.0	-18	.	16	.	.	.	.	-1	4
Cn1c(N2CCC(C(N)=O)CC2)nc2c1c(=O)n(Cc1cccc(Br)c1)c(=O)n2C	-2.3	6	.	1	.	.	.	.	.	20
CCn1ncc(Cl)c1C(=O)Nc1cc(Cl)ccc1Cl	-2.8	0	.	6	.	.	.	.	-1	-8
Cc1ccc(NC(=O)CSc2ccc(-c3ccc4c(c3)OCO4)nn2)cc1F	-1.2	-2	.	2	.	.	.	.	1	-22
CC(C)(C)c1cc(C(=O)NC2CC2)n(Cc2ccc(F)cc2)n1	-2.0	-4	-1.5	-1	14	-1	-4.6	i	.	-2
Cc1nc2ncnn2c(N2CCN(S(=O)(=O)c3ccc(Br)cc3)CC2)c1C	1.1	-3	-1.9	-1	5	6	1.2	i	0	?
CC(C)Cc1nc2oc3c(Cl)ncnc3c2c2c1CCCC2	2.1	-3	-1.8	3	6	-12	-3.0	i	32	-11
Nn1c(COc2ccccc2)nnc1SCC(=O)O	-3.5	6	.	-1	.	.	.	.	6	0
C=CCn1c(Cc2ccc(OC)cc2)nnc1SCC(=O)c1cccc([N+](=O)[O-])c1	1.1	9	.	-2	.	.	.	.	66	14
COc1ccc(C(=O)N2CCN(S(=O)(=O)c3ccc(F)cc3)CC2)cc1OC	-2.1	3	.	-5	.	.	.	.	-43	-11
CCCn1c2ccccc2c2nnc(SCC(=O)OCC)nc21	1.6	-6	.	-4	.	.	.	.	.	13
CCn1c(-c2ccccc2)c(C(=O)O)c2ccccc21	-0.1	-14	.	-14	.	.	.	.	-8	-5
CSc1ccc(-c2nnn(Cc3ccccn3)n2)cc1	3.0	-3	.	-1	.	.	.	.	-5	-2
NCCCC(N)(C(=O)O)C(F)F (stereo not drawn)	0.1	-16	1.4	5	-19	-17	-0.5	i	-2	-7
COC(=O)c1ccc(N2CCN(c3ccccc3)CC2)c(NC(=O)C2CC2)c1	4.7	17	.	0	.	.	.	.	37	-21
CCn1cc(C(=O)NCCCN2CCC(C)CC2)c(=O)c2cc(S(=O)(=O)N3CCOCC3)ccc21	4.3	5	-2.5	-4	-3	-4	-2.6	i	0	2
Cc1ccc(NC(=O)c2cnc(SCC(=O)c3ccccc3)n(C)c2=O)cc1	6.2	-21	.	.	.	.	.	.	1	2
COc1cccc(SCC(=O)N2CCN(c3ccccc3)CC2)c1	-5.0	-1	-1.0	-1	-23*	-10*	-3.0*	i	68	-3

Entries of single compounds from above. Values in the order: RanGTP-Impb inh, T cruzi inh, AF4-AF9 inh, Beta cell apopt, rRNA inh HTS, rRNA inh HTS OD600, rRNA inh HTS RFP, FGF22 binding, ALR inh, Calb FLC
COc1ccc(OC)c(S(=O)(=O)N(C)CC(=O)Nc2cc(Cl)ccc2OC)c1 is listed with -3.7, -9, ., 5, ., ., ., ., -7, -8
COc1ccc(C(=O)N2CCN(S(=O)(=O)c3ccc(F)cc3)CC2)cc1OC is listed with -2.1, 3, ., -5, ., ., ., ., -43, -11

(further entries)
SMILES	RanGTP-Impb inh	T cruzi inh	AF4-AF9 inh	Beta cell apopt	rRNA inh HTS	rRNA inh HTS OD600	rRNA inh HTS RFP	FGF22 binding	ALR inh	Calb FLC
CCOC(=O)CCCc1c[nH]c2ccccc12	4.2	-6	.	-4	.	.	.	.	2	-26
Cc1cccc(C)c1-n1c(C)cc(/C=N\NC(=O)CC(=O)NC2CCCCC2)c1C	1.7	13	.	-6	.	.	.	.	-8	-54
O=C(Cn1nc(Cc2cccnc2)c2ccccc2c1=O)N1CCN(C(=O)c2ccco2)CC1	-3.2	-5	-0.3	2	11	17	-0.4	i	-6	-1
Cc1ccccc1-n1c(SCC(=O)N2CCN(c3ccccc3)CC2)nnc1-c1ccncc1	?	11	.	0	.	.	.	.	-18	20
CC1(C)O[C@@H]2[C@H](O1)[C@@H](COS(=O)(=O)O)O[C@H]2n1ccc(=O)[nH]c1=O	.	.	4.3	0	14	9	-1.0	i	-1	.
O=C(CSCC(=O)N1CCOCC1)Nc1nc(-c2ccc3c(c2)OCO3)cs1	?	0	0.0	-23	-19	-34	-7.7	i	97*	-2
CCOC(=O)c1[nH]c2ccccc2c1NC(=S)Nc1ccccc1	-3.9	-3	8.3	-5	2	-2	0.5	i	98*	5
Cn1cccc1CC(=O)N/N=C/c1cccc2ccccc12	-3.3	-10	.	9	.	.	.	.	4	-13
CCCCNC(=O)c1ccc(CS(=O)(=O)c2ccc(C)cc2)o1	1.7	-2	-1.0	-6	2	0	3.0	i	79*	8
COc1ccc(CN2CCN(CC=C(C)C)C(CCO)C2)cc1Cn1cncn1 (stereo not drawn)	8.2	4	-0.2	-11	16	15	-1.7	i	-8	-1
CCN(CC)CCN(C(=O)c1ccc(C(=O)c2ccccc2)cc1)c1nc2cc3c(cc2s1)OCO3	2.2	36	3.3	-7	-5	-12	1.7	i	15	-1
Cc1ccc(S(=O)(=O)N(C)/N=C/C=C/c2ccccc2)cc1	5.4	-8	.	-1	.	.	.	.	.	-6
CCN(CC(=O)NCc1ccc(F)cc1)C(=O)COc1ccccc1[N+](=O)[O-]	.	.	6.9	-1	5	5	3.5	i	-3	.
CCOC(=O)C1CCN(C(=O)c2cc3cc(C)ccc3[nH]2)CC1	3.6	-1	-2.2	.	-13	-12	-2.0	i	-5	3
CCCCOCCCNC1=NCCCCC1	-0.9	-8	.	0	.	.	.	.	-8	1
O=C(NCCN1CCOCC1)c1ccccc1Cl	4.1	-34	1.0	7	7	12	0.3	i	17	-6
O=C(NCCC1=CCCCC1)C1CCCN(S(=O)(=O)c2cccc3cccnc23)C1 (stereo not drawn)	2.6	11	1.3	3	-23	-45	-12	i	.	18
CCOC(=O)C(Cc1ccccc1)NC(=O)Cn1nnc(-c2ccccc2)n1 (stereo not drawn)	1.2	-10	.	-5	.	.	.	.	-10	4
CC(C)(C)NC[C@@H](O)COc1cccc2c1CCCC2=O	.	.	-2.4	-8	11	12	-1.1	i	-19	.
COc1ccc(N=c2oc3cc(O)ccc3cc2C(=O)NCC2CCCO2)cc1 (stereo not drawn)	173*	10	.	12	.	.	.	.	-21	-6
CC1=CC(C)(C)N(C(=O)CSc2nnc(C)s2)c2ccc(C)cc21	5.4	-9	2.0	-12	-17*	-2.1*	3.9*	i	1	15
COc1ccc(CNC(=O)[C@@H]2CC=C[C@@H]3CCN(C4CC4)C(=O)[C@@H]32)cc1	0.9	-8	-3.1	4	12	11	0.9	i	-2	-1
CCN(CC)S(=O)(=O)c1ccc(C(=O)Nc2ccc(C(F)(F)F)n(C)c2=O)cc1	-0.7	14	0.9	-3	5	13	-2.4	i	-1	0
OC(CN1CCN(c2ccccn2)CC1)Cn1c2ccc(Cl)cc2c2cc(Cl)ccc21 (stereo not drawn)	0.1	43	.	3	.	.	.	.	-12	10
COc1cccc(/C=C2/Sc3ccc(C(=O)NCCN4CCCC4)cc3NC2=O)c1	?	20	37*	.	-30	-28	6.5	i	-12	4
Next structures follow:
SMILES	RanGTP-Impb inh	T cruzi inh	AF4-AF9 inh	Beta cell apopt	rRNA inh HTS	rRNA inh HTS OD600	rRNA inh HTS RFP	FGF22 binding	ALR inh	Calb FLC
O=C(Cc1ccccc1)NC1(O)C(=O)c2ccccc2C1=O	-2.3	-8	-2.7	.	17	15	3.1	i	.	0
O=C(NCC(c1ccco1)N1CCOCC1)c1cccc([N+](=O)[O-])c1 (stereo not drawn)	6.0	-3	-41	1	2	-1	3.2	i	-8	11
COc1ccccc1C(=O)NNC(=O)c1ccc(Br)o1	-2.4	-22	0.8	-17	6	7	-1.1	i	8	-11
O=C(CSc1nc2ccccc2c2nc3ccccc3n12)NCc1ccco1	6.0	12	.	15	.	.	.	.	36	10
COc1ccc(NC(=O)c2cc(-c3cc(OC)c(OC)c(OC)c3)nc3ccccc23)c(OC)c1	?	27	1.0	3	-1	-9	0.7	i	3	-5
CCCNC(=O)CCc1nnc2ccc(N3CCC(C)CC3)nn12	-0.1	-6	-4.1	-1	-2	14	-1.3	i	-2	-3
O=C([C@H](Cc1ccc(O)cc1)n1cc(CCO)nn1)N1CCNCC1	6.9	5	-1.2	-2	12	14	-0.2	i	4	-4
c1ccc(Cn2ccnc2SCc2nnc(-c3ccccc3)o2)cc1	3.7	-17	-22	.	-2	-5	2.1	i	1	3
CC(C)(C)SCCNC(=O)/C=C/c1cccc([N+](=O)[O-])c1	-1.9	11	.	-9	.	.	.	.	-3	28
CCOC(=O)c1c(NC(=O)c2cccs2)sc(C(=O)N2CCOCC2)c1C	1.4	17	-3.4	-3	8	5	-1.5	i	-12	2
O=C(Nc1nc2ccccc2[nH]1)C1CCCC1	1.7	0	-3.8	2	14	12	3.6	i	-2	-3
O=C(C(Cl)c1ccccc1)N1CCCC1 (stereo not drawn)	0.8	-10	1.8	-1	5	3	-1.9	i	2	7
CN(Cc1nc2ccc(F)cc2[nH]1)Cc1c(C(=O)N(C)C)nc2ccc(Cl)cn12	4.6	1	-0.7	1	1	-3	-3.7	i	0	20
NC(=S)NNC(=O)[C@@H]1CCCC[C@@H]1C(=O)O	-0.1	-3	.	6	.	.	.	.	-1	-2

A few values from the entries so far.
Entry for `CC(C)(C)SCCNC(=O)/C=C/c1cccc([N+](=O)[O-])c1` in RanGTP-Impb inh: -1.9
Entry for `NC(=S)NNC(=O)[C@@H]1CCCC[C@@H]1C(=O)O` in T cruzi inh: -3
Entry for `CCCNC(=O)CCc1nnc2ccc(N3CCC(C)CC3)nn12` in ALR inh: -2
Entry for `O=C(CSc1nc2ccccc2c2nc3ccccc3n12)NCc1ccco1` in RanGTP-Impb inh: 6.0
Entry for `COc1ccccc1C(=O)NNC(=O)c1ccc(Br)o1` in T cruzi inh: -22
Entry for `O=C(C(Cl)c1ccccc1)N1CCCC1` (stereo not drawn) in Beta cell apopt: -1

Some of the compounds tested; count on the stated rates, not on these rows.
